High-throughput results as filed in PubChem.
Biofilm kill mix – mixtures killing C. albicans biofilm; C. albicans biofilm persisters + clotrimazole, fluorescence viability; primary screen in compound mixtures of four per well; inhibition, % at 7.6 µM; actives 0.02% (n = 120,000); AID 1242;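 active = inhibition above 30.3% in the primary screen of four-compound pools, then above 30% when the compound was retested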;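 also: compounds exposed to preformed 24 h biofilms for 48 h; the number belongs to the whole pool; some results filed as inactive read as strong as hits; inactives centre near 12; 0% = biofilm with clotrimazole alone and 100% = kill control; retested singly at about 60 µM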
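Probe or stimulus – Clotrimazole 50 µg/mL co-treatment · System – C. albicans biofilms · Schedule – 24 h biofilm formation, then 48 h compound exposure, 37 °C · Evaluation – percent inhibition of biofilm viability · Technique – 2-h Alamar Blue fluorescence, 535/590 nm excitation/emission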
Numbers without * were called inactive.

SMILES	Biofilm kill mix
O=C(CCCCCNC(=O)c1ccccc1)N=Nc1c(O)[nH]c2c(Br)cc(Br)cc12	17
Cc1cccc(NC(=O)Cn2nnc3sc4c(c3c2=O)CC(C)(C)OC4)c1	0
COCCCNC(=O)c1ccc(Cn2c(=O)[nH]c3ccccc3c2=O)cc1	10
Cc1ccc(NC(=O)C2CCCCC2C(=O)O)cc1Cl (stereo unspecified)	7
Cn1cc(Cl)c(C(=O)NNC(=S)NC2CCCCC2)n1	10
CNC(=S)NNC(=O)c1ccc(=O)n(Cc2ccc(Cl)cc2Cl)c1	0
NCCCC[C@H]1CNC(=O)C(=O)N1CCC12CC3CC(CC(C3)C1)C2	6
CN(C)C(=S)c1ccccc1	19
Fc1ccc(NC(=S)Nc2cccnc2)c(Cl)c1	28
O=C(Nc1ccccc1N1CCOCC1)c1cccc([N+](=O)[O-])c1	5
Cc1cc(=O)[nH]c(NN)n1	18
CCOC(=O)C1=C(O)C(=O)N(Cc2ccccc2)CC1	11
FC(F)(F)c1cc(Oc2ccc(Cl)cc2)ncc1-c1nnc(-c2ccc(Cl)cc2)o1	14
CS(=O)(=O)N1CCN(Cc2ccc([N+](=O)[O-])cc2)CC1	30
CC(=C\c1ccccc1)/C=C1/SC(=S)N(CCC(=O)Nc2ccccn2)C1=O	-1
Cc1nn(CCO)c2nc(-c3cccs3)cc(C(F)(F)F)c12	18
O=C(COc1ccccc1/C=C1/NC(=O)NC1=O)Nc1ccccc1	13
CCOC(=O)C1(CC2CCCCO2)CCN(Cc2nccn2-c2ccc(OC)cc2)CC1 (stereo unspecified)	8
CC(=O)CCc1ccc(Oc2nc(-c3cccnc3)nc3ccccc23)cc1	6
COc1cccc(CN2CCNC(=O)C2CC(=O)NCCn2cccn2)c1OC (stereo unspecified)	-1
COC(=O)N/N=C(/c1ccccc1)C1CCCCC1	7
COc1ccccc1C(O)(C(=O)NNc1cccc(C)c1)c1ccccc1OC	8
O=C(N/N=C/c1c[nH]c2ccccc12)c1cc(-c2ccc3ccccc3c2)n[nH]1	18
COC(=O)NC1(C(=O)O)CCCC1	9
COc1ccccc1Oc1ccc(N/C=C/C(=O)c2ccco2)cc1	7
CCOC(=O)C1=C(C(F)(F)F)Nc2ncnn2C1c1cc(OC)ccc1OC (stereo unspecified)	6
Cc1ccc(OC(=O)CCC(=O)Nc2ccc(Br)cc2)cc1	1
CCn1cc(NC(=O)CCl)c(C)n1	14
CN(C)C(CNC(=O)c1ccc2c(=O)n(-c3ccccc3F)c(=S)[nH]c2c1)Cc1ccccc1 (stereo unspecified)	9
COc1ccc2nc(C)cc(SCC(=O)N/N=C/c3ccc(O)cc3O)c2c1	13
CCOC(=O)N/N=C/c1c(C)nn(-c2cccc(C(F)(F)F)c2)c1Cl	16
COC(=O)C1SCC2C(=O)N(Cc3ccc(Cl)c(Cl)c3)CC(=O)N21 (stereo unspecified)	18
CCOC(=O)C(Cc1ccccc1)c1ccnc2nc(N)nn12 (stereo unspecified)	1
CCC(C)(C(=O)Nc1ccccc1C)N(C(=O)CNC(C)=O)c1ccccc1C (stereo unspecified)	13
CCOC(=O)c1nc(NCc2ccccc2F)c2ccccc2n1	9
CCOC(=O)C1CC2CC(C1)CN(C(=O)C1CCCCC1)C2 (stereo unspecified)	8
CSc1nsc2nc(=O)c(/C=C3\C=Nc4ccccc43)c(N)n12	9
O=C1OC(c2ccc(Br)cc2)=N/C1=C\c1ccco1	2
CC(C)(C)c1cc2nc3c(c(=O)n2[nH]1)CN(Cc1ccccc1)C3=O	18
O=C1CC(c2ccccc2)c2ccccc21 (stereo unspecified)	16
CC(C)CCNC(=O)NC(=O)COC(=O)C1CCN(S(=O)(=O)c2ccccc2F)CC1	17
Cc1c(C(=O)Nc2nc3ccccc3[nH]2)oc2c(Cl)cccc12	19
CNC(=O)COC(=O)c1ccc(Cl)c(S(=O)(=O)N2CCCC2)c1	3
COc1cc2c(cc1OC)C(=S)NC1(CCCC1)C2	-10
Cc1ccc(N2C(=O)CC(NNC(=O)c3cccc(S(=O)(=O)N4CCCC4)c3)C2=O)cc1 (stereo unspecified)	14
Cc1cccc(-n2c(CNC(=O)c3cccc([N+](=O)[O-])c3C)n[nH]c2=S)c1	28
CN(CCc1ccccn1)C(=O)CC1C(=O)NCCN1Cc1ccc(-c2ccccc2)cc1 (stereo unspecified)	12
CCN(CC)S(=O)(=O)c1ccc(N2CCOCC2)c(NS(=O)(=O)c2cc(C(C)(C)C)ccc2C)c1	8
CCOC(=O)c1sc(=S)n(-c2ccc(C)cc2)c1N	12
O=C(CCCCl)NC(=S)Nc1cc(C(F)(F)F)ccc1N1CCOCC1	7
CCn1c(Cc2ccccc2)nnc1SCC(=O)Nc1ccccc1O	11
COc1ccc(N2CCN(CCOc3ccc4c(C)cc(=O)oc4c3)CC2)cc1	9
Nc1nc(Nc2ccc(Cl)cc2)nc(NCCO)c1[N+](=O)[O-]	17
CCOC(=O)C(C)Oc1cccc2c(=O)n(CC(=O)NCc3ccccc3)ccc12 (stereo unspecified)	13
CC(C)CC(N=Cc1c(O)c2ccccc2oc1=O)C(=O)O (stereo unspecified)	9
COc1ccc(-c2nnc(SCC(=O)N3CCOCC3)n2C)cc1OC	-9
COc1cccc(C(=O)Nc2c(C)nn(-c3ccccc3)c2C)c1	20
COc1cc(S(=O)(=O)N2CCC(c3nc4ccccc4s3)CC2)ccc1S(=O)(=O)N1CC(C)CC(C)C1 (stereo unspecified)	9
Oc1ccc2ccccc2c1N=Nc1nccs1	7
CCC1CCCCN1CCNC(=O)CCS(=O)(=O)c1ccc(Br)cc1 (stereo unspecified)	7
Other entries follow:
SMILES	Biofilm kill mix
O=C(N/N=C/c1cccnc1)C(O)c1ccccc1 (stereo unspecified)	22
Cc1ccc(/C(N)=N/OC(=O)c2ccc(C)cc2Cl)cc1	18
Cc1cccc(OS(=O)(=O)NC(=O)OCC2CCCN3CCCCC23)c1 (stereo unspecified)	12
COC(=O)C1=C(NC(=O)CCCCl)CCS1	-2
CC1CC(C)CN(CCOc2ccc(Br)cc2)C1 (stereo unspecified)	15
COc1cc(NC(=S)NC(=O)c2ccc(C(C)(C)C)cc2)ccc1NC(=O)c1cccs1	7
Nc1cc([N+](=O)[O-])ccc1N1C(=O)CCCC1=O	9
Cc1ccc(S(=O)(=O)Nc2ccc(Cl)cc2)cc1NC(=O)c1cc2c(s1)CCCC2	6
CC(=O)c1ccc(N=Nc2ccc(N(C)C)cc2)cc1	8
O=C(N/N=C\C=C\c1ccc2c(c1)OCO2)c1cccnc1	14
COc1ccccc1Cn1c(=S)[nH]c2cc(C(=O)NCc3cccnc3)ccc2c1=O	6
COc1cccc([C@@H]2Oc3ccc(OC)cc3C(=O)[C@H]2OC(=O)NCc2ccc3c(c2)OCO3)c1	12
COc1ccc(C(=O)NC(=O)COC(=O)c2ccc3ncsc3c2)cc1	8
COc1cc(/C=N/NC(=S)NCCN2CCOCC2)ccc1O	19
CCCCC(=Nc1ccccc1OC)C1=C(O)CC(c2ccccc2)CC1=O (stereo unspecified)	10
O=C(c1cc(-c2ccncc2)nc2ccc(Br)cc12)N1CCN(Cc2ccc3c(c2)OCO3)CC1	14
C/C=C/c1ccc(OCCOc2cc(C=O)ccc2OC)c(OC)c1	18
CC(=O)c1ccc(S(=O)(=O)N2CCN(C(=O)/C=C/c3ccc4ccccc4n3)CC2)cc1	22
Clc1ccc(-c2cc(C3CCNCC3)[nH]n2)cc1	2
O=C(O)/C=C/c1ccc(S(=O)(=O)NCc2ccco2)cc1	0
COC(=O)c1ccccc1NC(=O)CN(c1ccc(OC)cc1)S(C)(=O)=O	14
CSc1nc2ccc(NC(=O)c3c(-c4ccccc4)noc3C)cc2s1	25
COc1ccc(NC(=O)CSc2nc3ccsc3c(=O)n2CCCCCC(=O)O)cc1	9
CC(C)CNC(=O)c1cccc(NC(=O)C(C)C)c1	12
Cc1ccccc1C1NC(=S)NC2=C1C(=O)CC(C)(C)C2 (stereo unspecified)	-1
Cc1ccc(NC(=O)C(C)N=C2NS(=O)(=O)c3ccccc32)cc1F (stereo unspecified)	13
COc1ccc(C2c3sc(=O)[nH]c3SCC2C(N)=O)cc1 (stereo unspecified)	19
CCN1C(=O)C(CC(=O)Nc2ccc(OC)cc2)N(Cc2ccco2)C1=S (stereo unspecified)	15
CC1CCCCN1C(=O)Cn1cc(C#N)c2ccccc21 (stereo unspecified)	2
CC1CCC/C=C/C(=O)c2c(O)cc(O)cc2CC(=O)O1 (stereo unspecified)	17
O=c1c2ccccc2cnn1Cc1n[nH]c(=S)n1-c1ccc(Cl)cc1Cl	-4
CN(C)C(=O)CSc1nnc(-c2cccs2)n1-c1ccccc1	19
Cc1nonc1-c1csc(N)n1	11
CCC(=O)Nc1cccc(NC(=S)NC(=O)c2ccccc2C)c1	13
Cc1ccc(N2C(=O)C3C4C=CC(CNC(=S)N5CCN(c6ccccn6)CC5)(O4)C3C2=O)cc1 (stereo unspecified)	5
c1ccc(-n2cc(CN3CCCC(CN4CCCC4)C3)c(-c3ccc4c(c3)OCO4)n2)cc1 (stereo unspecified)	14
Nc1cccnc1Oc1ccccc1F	14
CCNc1nc(N)nc(-c2cc(Cl)ccc2O)n1	4
CN1CCCC1=Nc1c2c(nc3ccccc13)N(C)CC2	15
Cc1cc(OCC(=O)Nc2ccncc2)ccc1[N+](=O)[O-]	-9
CCOC(=O)c1c(C)nc2ccccc2c1-c1ccccc1	10
COc1ccc(-n2nnnc2/C(=C/N(C)C)C(=O)c2ccccc2)cc1	24
CCN(CC)CCn1c(=S)[nH]c2cc(C(=O)N3CC=C(c4ccccc4)CC3)ccc2c1=O	11
Cn1c(-c2ccc(F)cc2)cnc1NCc1cc2c(cc1[N+](=O)[O-])OCO2	19
N#C/C(=C(/O)COC(=O)CSc1ccc(Cl)cc1)c1nc2ccccc2[nH]1	18
CCCN(CCC)S(=O)(=O)c1cccc(-c2csc(C)n2)c1	28
C=CCNC(=O)c1ccc(-n2cccc2)cc1	7
CCCCCC(=O)Nc1nc2ccccc2[nH]1	18
CC1=Nc2cc(C(=O)O)ccc2Sc2c(C)ccc(C)c21	19
O=C(CCSc1ccccc1)Nc1nnc(-c2cccs2)o1	18
C=CC[C@@H]1C=C[C@H](O/N=C/c2ccc(C(=O)N3[C@H](c4ccc(C)cc4)[C@@H](C)CC[C@H]3C(=O)OC)cc2)[C@@H](CO)O1	10
O=C(NC(=S)Nc1nc(-c2cccc3ccccc23)cs1)c1cc2ccccc2o1	14
O=C(NCCc1c[nH]c2ccccc12)/C(=C\c1cccnc1)NC(=O)c1cccs1	-12
CC(C)(C)NC(=O)/C=C/c1ccc(C(F)(F)F)cc1	11
O=C(O)COc1cnc2ccccc2n1	8
O=C1CSC(c2cccnc2)N1c1ccccc1 (stereo unspecified)	21
CNC(=S)N/N=C(\C)c1ccc2c(c1)OCCO2	-5
COc1ccc(C2CC3(O)NC(=O)C(C#N)(C3C)C2(C#N)C#N)cc1 (stereo unspecified)	34
Cc1cc(C)n(-c2cc(Cl)ccc2[N+](=O)[O-])n1	43
COc1cccc(F)c1C(C[N+](=O)[O-])c1c(N)n(C)c(=O)n(C)c1=O (stereo unspecified)	17

Sorted by formula weight (low to high): 20 of the compounds above.
SMILES	Biofilm kill mix
O=C(O)COc1cnc2ccccc2n1	8
Cc1cc(C)n(-c2cc(Cl)ccc2[N+](=O)[O-])n1	43
CNC(=S)N/N=C(\C)c1ccc2c(c1)OCCO2	-5
CCNc1nc(N)nc(-c2cc(Cl)ccc2O)n1	4
CC(C)(C)NC(=O)/C=C/c1ccc(C(F)(F)F)cc1	11
CN1CCCC1=Nc1c2c(nc3ccccc13)N(C)CC2	15
Cc1cc(OCC(=O)Nc2ccncc2)ccc1[N+](=O)[O-]	-9
CCOC(=O)c1c(C)nc2ccccc2c1-c1ccccc1	10
CC1=Nc2cc(C(=O)O)ccc2Sc2c(C)ccc(C)c21	19
O=C(CCSc1ccccc1)Nc1nnc(-c2cccs2)o1	18
COc1ccc(C2CC3(O)NC(=O)C(C#N)(C3C)C2(C#N)C#N)cc1 (stereo unspecified)	34
CCCN(CCC)S(=O)(=O)c1cccc(-c2csc(C)n2)c1	28
COc1ccc(-n2nnnc2/C(=C/N(C)C)C(=O)c2ccccc2)cc1	24
COc1cccc(F)c1C(C[N+](=O)[O-])c1c(N)n(C)c(=O)n(C)c1=O (stereo unspecified)	17
Cn1c(-c2ccc(F)cc2)cnc1NCc1cc2c(cc1[N+](=O)[O-])OCO2	19
N#C/C(=C(/O)COC(=O)CSc1ccc(Cl)cc1)c1nc2ccccc2[nH]1	18
O=C(NCCc1c[nH]c2ccccc12)/C(=C\c1cccnc1)NC(=O)c1cccs1	-12
O=C(NC(=S)Nc1nc(-c2cccc3ccccc23)cs1)c1cc2ccccc2o1	14
CCN(CC)CCn1c(=S)[nH]c2cc(C(=O)N3CC=C(c4ccccc4)CC3)ccc2c1=O	11
C=CC[C@@H]1C=C[C@H](O/N=C/c2ccc(C(=O)N3[C@H](c4ccc(C)cc4)[C@@H](C)CC[C@H]3C(=O)OC)cc2)[C@@H](CO)O1	10

Next part:
SMILES	Biofilm kill mix
Cc1ccc2nc(NCc3ccccc3)c(C=NCc3cccnc3)c(=O)n2c1	11
CCOC(=O)C1(C)/C(=N/Nc2ccccc2OC)C(=O)C(=O)N1c1ccccc1 (stereo unspecified)	15
CCCc1ccc(Oc2cc(Cl)nc(N)n2)cc1	19
CCCc1cnc(N2CCN(S(C)(=O)=O)CC2)nc1	7
COC(=O)c1c(NC(=O)/C=C/C(=O)O)sc(C)c1-c1ccc(C)cc1	11

A portion of the library (hit frequency here may not be typical).
